GIV Gai3 FP – inhibitors of GIV peptide binding to Galpha-i3, primary screen, biochemical, fluorescence polarization, FITC-GIV GBA peptide, rat Galphai3; Guanine nucleotide-binding protein G(i) subunit alpha-3 (Rattus norvegicus), P08753; 90 min; hits give low values; scaled: aluminum fluoride 0%, vehicle 100%; percent of control (FP), % (no concentration beside the values); 210,000 compounds, 0.42% hits;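 active means replicate mean at 85% of control or lower, very high polarization wells dropped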;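 further: wells of about 15 µL received 100 nL stock; the first replicate is given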
Target sequence (P08753 whole entry, looked up): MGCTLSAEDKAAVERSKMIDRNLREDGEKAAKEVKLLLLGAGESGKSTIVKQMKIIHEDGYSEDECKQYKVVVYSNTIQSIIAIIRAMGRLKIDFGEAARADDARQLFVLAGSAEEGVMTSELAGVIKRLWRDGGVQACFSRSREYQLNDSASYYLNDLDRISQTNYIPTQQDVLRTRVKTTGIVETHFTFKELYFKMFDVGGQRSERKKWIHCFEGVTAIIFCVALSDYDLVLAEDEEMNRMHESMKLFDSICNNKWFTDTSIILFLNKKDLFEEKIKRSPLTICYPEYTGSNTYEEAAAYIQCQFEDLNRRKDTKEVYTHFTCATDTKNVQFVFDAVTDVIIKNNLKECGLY
The depositor's hits bear a star. A portion of the library. The share of hits here may be higher or lower than overall.

smiles	GIV Gai3 FP
O=C(Cn1cnc2sc3c(c2c1=O)CCCC3)NCC(=O)N1CCN(c2ccccc2F)CC1	107
Cc1c(C(c2cccc([N+](=O)[O-])c2O)c2c(C)n(C)n(-c3ccccc3)c2=O)c(=O)n(-c2ccccc2)n1C	98
COc1ccccc1NC(=O)CSc1nc2ccc(NC(=O)CSc3nncn3C)cc2s1	102
C=CCn1c(SCC(=O)Nc2ccccc2[N+](=O)[O-])nc2sc3c(c2c1=O)CCCC3	99
CCOC(=O)C1=CN(c2cc(C)ccc2C)C=C(C(=O)OCC)C1c1cc(OC)c(OC)c(OC)c1	111
ClC(Nc1nc(-c2ccccc2)[n+](-c2ccccc2)s1)C(Cl)(Cl)Cl (stereo not given)	113
CC1=NN(c2ccccc2)C2(SC(c3ccc([N+](=O)[O-])cc3)=NN2c2ccccc2)c2ccccc21 (stereo not given)	105
O=C(CSc1nnc(-c2cccnc2)n1-c1ccccc1)c1c[nH]c2ccccc12	103
COc1cc(C(=O)NC(c2ccc(Cl)cc2)c2cc([N+](=O)[O-])c3cccnc3c2O)cc(OC)c1OC (stereo not given)	123
CCC(C)NC(=O)CSc1nc(NC2CCCCC2)c2ccccc2n1 (stereo not given)	109
COc1cccc2c1OC(c1cccc(F)c1)N1N=C(c3cccnc3)CC21 (stereo not given)	109
COc1c2occc2c(OC)c2c(=O)cc(C(F)(F)C(F)(F)C(F)(F)C(F)(F)F)oc12	99

(next part)
smiles	GIV Gai3 FP
COc1cc(/C=c2/sc3n(c2=O)NC2(c4ccccc4)N(C)C(=O)N(C)C2(c2ccccc2)N=3)ccc1O (stereo not given)	125
O=C(O)C1Cc2c([nH]c3ccccc23)C(c2ccc3c(c2)OCO3)N1 (stereo not given)	111
CCOC(=O)C1C(=O)NC(SCC(=O)Nc2ccccc2CC)=C(C#N)C1c1ccccc1OCC (stereo not given)	110
COc1ccc(C(=O)Nc2ccc(C3(C(=O)NCC4CCCO4)CC3)cc2)cc1 (stereo not given)	104
COc1ccc(NC(=O)CSc2nnc3c4sc(N5CCCC5)nc4ncn23)cc1Cl	108
Cc1cccc(NC(=O)N2CCCC(c3nnc(C(=O)Nc4ccc(F)cc4)s3)C2)c1C (stereo not given)	104
CCOc1ccc(NC(=O)CSc2nc3ccccc3c(=O)n2NC(=O)c2ccc(OC)cc2)cc1	107
CCOC(=O)c1ccc(NC2=NC3(CCCCC3)Cc3ccccc32)cc1	114
O=C(NCc1nc2cccnc2n1Cc1ccc(F)cc1)c1ccc(Cl)cc1	106
CCOC(=O)c1sc2nc(SCC#N)n(CC3CCCO3)c(=O)c2c1C (stereo not given)	102
Cc1cc(=O)n(CC(=O)N2CCCc3ccccc32)c(-n2nc(C)cc2C)n1	106
CC(C)(C)NC(=O)c1ccc(-c2cc(NC3CCCCC3)ncn2)cc1	98

A draw from above in order of count of non-hydrogen atoms, rising:
smiles	GIV Gai3 FP
O=C(O)C1Cc2c([nH]c3ccccc23)C(c2ccc3c(c2)OCO3)N1 (stereo not given)	111
Cc1cc(=O)n(CC(=O)N2CCCc3ccccc32)c(-n2nc(C)cc2C)n1	106
COc1ccc(C(=O)Nc2ccc(C3(C(=O)NCC4CCCO4)CC3)cc2)cc1 (stereo not given)	104

New compounds follow
smiles	GIV Gai3 FP
CCc1cc(C2CCCN2C(=O)c2cc(C(C)C)no2)on1 (stereo not given)	100
COC(=O)COc1ccc(C2C3=C(CC(C)(C)CC3=O)OC3=C2C(=O)CC(C)(C)C3)cc1	107
CC1=CC(C)C2(CO)COC(c3cccnc3)C1C2C (stereo not given)	103
CC(C)c1noc(C2CCCN2Cc2ccco2)n1 (stereo not given)	109
CC(C)Cn1c(=O)c2nscc2n(CC(N)=O)c1=O	99
COCCCNC(=O)c1ccc(Sc2ccc(NS(=O)(=O)c3cc(C)ccc3C)cc2)nc1	99
CC(=O)N(Cc1cccnc1)c1nc2ccc(Cl)cc2s1	109
O=C1CC(c2ccc(O)cc2)c2cnn(-c3nc4ccccc4s3)c2N1 (stereo not given)	93
O=C(CSc1nccnc1N1CCN(c2ccc(F)cc2)CC1)Nc1ccc2c(c1)OCO2	104
Cc1cc(N2CCC(C)CC2)n2nc(CN3CCC4(CC3)OCCO4)nc2n1	112
CCOC(=O)c1c(C)[nH]c(CCC(=O)NC2CCN(Cc3ccccc3)CC2)c1C	108
O=C(C1CCN(c2cc(N3CCOCC3)ncn2)CC1)N1CCSCC1	100

(list continues)
smiles	GIV Gai3 FP
c1ccc(-c2csc3ncnc(N4CCN(Cc5ccc6c(c5)OCO6)CC4)c23)cc1	104
CC(C)c1csc(C2CCN(C(=O)C3CC3)CC2)n1	105
CCn1c(C)c(-c2nc(C3CC3)no2)c(S(=O)(=O)N2CCC(C)CC2)c1C	104
CCSCCOC(=O)C1=C(C)NC2=C(C(=O)CC(c3cccs3)C2)C1c1cc(OC)c(O)c([N+](=O)[O-])c1 (stereo not given)	97
Cc1ccc2nc(NC(=O)c3ccc(S(=O)(=O)N4CCc5ccccc5C4)cc3)sc2c1	101
CCc1ccc2c(c1)[C@H]1OCC[C@H]1C(c1ccc(C(=O)OC)cc1)N2 (stereo not given in full)	102
COc1cccc(C(=O)N(c2ccccc2)C2CC(C)N(C(C)=O)c3ccccc32)c1 (stereo not given)	111
CC(C)c1ccc(NC(=O)c2cc(S(=O)(=O)N3CCN(Cc4ccc5c(c4)OCO5)CC3)ccc2F)cc1	105
CNC(=O)c1ccc(-c2nc3cc(NS(=O)(=O)c4ccccc4Cl)ccc3n2C)cc1	101
COC(=O)C1=C(C(=O)OC)SC(=C2C(=S)C(C)(C)N(C(=O)c3ccc(Cl)cc3Cl)c3cc(C)c(C)cc32)S1	109
Cc1nnc(-c2c(C)[nH]c(C)c2S(=O)(=O)NCCC(C)C)o1	99
O=C(Nc1ccccc1SCc1nnc(-c2ccccc2)o1)c1ccc2c(c1)OCO2	107

7 compounds picked at random from the list so far, as already listed:
smiles	GIV Gai3 FP
c1ccc(-c2csc3ncnc(N4CCN(Cc5ccc6c(c5)OCO6)CC4)c23)cc1	104
CCn1c(C)c(-c2nc(C3CC3)no2)c(S(=O)(=O)N2CCC(C)CC2)c1C	104
Cc1ccc2nc(NC(=O)c3ccc(S(=O)(=O)N4CCc5ccccc5C4)cc3)sc2c1	101
CC(C)c1ccc(NC(=O)c2cc(S(=O)(=O)N3CCN(Cc4ccc5c(c4)OCO5)CC3)ccc2F)cc1	105
Cc1nnc(-c2c(C)[nH]c(C)c2S(=O)(=O)NCCC(C)C)o1	99
O=C(Nc1ccccc1SCc1nnc(-c2ccccc2)o1)c1ccc2c(c1)OCO2	107
CCc1ccc2c(c1)[C@H]1OCC[C@H]1C(c1ccc(C(=O)OC)cc1)N2 (stereo not given in full)	102

(list continues)
smiles	GIV Gai3 FP
N#Cc1c(-c2ccccc2)cc(-c2ccccc2)[nH]c1=O	111
Cc1ccc(N2C(=O)/C(=C/c3ccc(-c4ccc(Br)cc4)o3)C=C2c2ccccc2)c(Br)c1	223
O=C(CSc1nnc(-c2ccc3c(c2)OCCCO3)n1C1CC1)c1ccc2c(c1)OCCO2	103
Cc1cc(C)c(C#N)c(SCC(=O)Nc2nnc(-c3ccccc3)s2)n1	109
COc1ccccc1NC(=O)CSc1nc(C(F)(F)F)cc(C)c1C#N	115
O=c1[nH]c(N2CCN(C3CCCCC3)CC2)nc2c(-c3ccc(Cl)cc3)csc12	100
Cc1ccsc1C(=O)N1CCCCC1CCN1CCOCC1 (stereo not given)	102
O=C(c1nnc(-c2cc(S(=O)(=O)Nc3cc(F)ccc3F)c[nH]2)o1)N1CCCC1	108
COc1ccccc1NC(=O)CSc1nc(-c2cccs2)cc(C(F)(F)F)c1C#N	111
Cc1cc(N2CCC(C)CC2)n2nc(CN3CCN(C)CC3)nc2n1	101
Cc1noc(C)c1S(=O)(=O)N1CCc2c(c(-c3nc(-c4ccccc4)no3)nn2C)C1	101
Cc1sc(C)c(S(=O)(=O)N2CC=C(c3ccccc3)CC2)c1-c1cc(C(F)(F)F)on1	104

New compounds follow:
| SMILES | GIV Gai3 FP |
| --- | --- |
| CC(=O)C1=NN(c2ccccc2Cl)C2(S1)c1ccccc1C(c1ccc(Br)cc1)=NN2c1ccccc1 (stereo not given) | 120 |
| Cc1cc(NC(=O)CSc2nc3ccccc3c3nc(CCc4c(C)n[nH]c4C)nn23)n[nH]1 | 105 |
| Cc1ccc2c(c1)-c1c(ssc1=S)C(C)(C)N2C(=O)C(C)N1C(=O)c2ccccc2C1=O (stereo not given) | 115 |
| Cc1ccc(CNC2=NCCNC23CCCCC3)cc1 | 98 |
| O=C(Nc1cccc(Cl)c1)c1nnc(C2CCCN(C(=O)c3cccc(F)c3)C2)s1 (stereo not given) | 106 |
| O=C(Nc1ccc2c(c1)OCO2)C1CCN(c2ncc(-c3ccccc3)cn2)CC1 | 105 |
| O=c1cc(CSc2ncn[nH]2)[nH]c2ccccc12 | 111 |
| CN(C)Cc1cc(C(C)(C)C)cc(C(C)(C)C)c1O | 112 |
| CC1(C)Cc2ccccc2-c2nc(=O)[nH]c(=O)n21 | 109 |
| CCOc1ccc(NC(=O)C2CCCN(S(=O)(=O)Cc3ccccc3Cl)C2)cc1 (stereo not given) | 102 |
| Cc1ccc(S(=O)(=O)N2CCC(CN3CCCC(C)C3)CC2)cc1Cl (stereo not given) | 99 |
| O=C(NC1CCCC1)c1ccc2c(=O)n(CC3CCCO3)c(SCc3cccc(Cl)c3)nc2c1 (stereo not given) | 104 |
| O=c1c2cc3c(cc2nc(SCc2nc(-c4ccccc4)no2)n1-c1ccc(F)cc1)OCO3 | 103 |
| Cc1ccc(-c2cn3cccnc3n2)cc1NC(=O)C1CCCCC1 | 105 |
| CCN(CC)CCNC(=O)c1sc2ncnc(N3CCc4ccccc4C3)c2c1C | 108 |
| COc1ccc(Nc2[nH]c(=O)sc2C2=c3cc(Br)ccc3=NC2=O)cc1 | 106 |
| COc1cccc(CSc2nc3cc(-c4ccccc4)sc3c(=O)n2C)c1 | 102 |
| CCOC(=O)C1CCN(C(=O)c2ccc3c(c2)nc(C)n3-c2ccc(F)cc2F)CC1 | 103 |
| COc1ccc(N2CCN(C(=O)c3sc4ncn(CC(=O)Nc5cccc(C(F)(F)F)c5)c(=O)c4c3C)CC2)cc1 | 101 |
| Cc1ccc(NC2=NC(=S)N(c3ccccc3)C23CCC(C(C)(C)C)CC3)cc1 (stereo not given) | 104 |
| CCn1nc(C)c2ccnc(N3CCC(C(=O)N4CCN(C5CCN(C)CC5)CC4)CC3)c21 | 98 |
| CC(C)(C)c1csc(-c2csc(S(=O)(=O)NCc3ccccc3F)c2)n1 | 110 |
| O=C(NCC1CCCO1)c1cc(-c2ccccn2)nc2ccc(S(=O)(=O)N3CCOCC3)cc12 (stereo not given) | 103 |
| CCCc1ccc(OC(C)C(=O)Nc2sc3c(c2C#N)CCCCC3)cc1 (stereo not given) | 103 |
| CCOc1ccc(C2C(N3C(=O)c4c(Cl)c(Cl)c(Cl)c(Cl)c4C3=O)C(=O)N2c2cc(Cl)ccc2C)cc1 (stereo not given) | 104 |
| CCc1ccc(N2CC(O)(c3ccc(OC)cc3)[N+]3=C2CCCC3)cc1 (stereo not given) | 103 |
| O=C(NCCc1c[nH]c2ccccc12)c1ccc2c(=O)n(Cc3ccccc3Cl)c(=S)[nH]c2c1 | 110 |
| CCN1C(=O)c2cccc3c(NC(=O)c4ccc(S(=O)(=O)N5CCCCC5)cc4)ccc1c23 | 120 |
| O=C(CSc1nc2ccccc2c(=O)n1CC1CCC(C(=O)NCc2ccccc2)CC1)NCC1CCCO1 (stereo not given) | 110 |
| CCCc1ccc(S(=O)(=O)N2CCCN(c3nc4cccnc4s3)CC2)cc1 | 103 |

The listing continues:
| SMILES | GIV Gai3 FP |
| --- | --- |
| COc1ccc(C2CC(c3ccccc3)=Nc3ccccc3N2)cc1 (stereo not given) | 109 |
| COc1ccccc1NC(=O)CCc1nc(CSc2nc3ccccc3s2)no1 | 108 |
| Cc1ccc(C2(O)CC(C(F)(F)F)=NN2C(=O)c2cccc(Cl)c2)cc1 (stereo not given) | 107 |
| CCCCOc1cc(OCCCC)c2c3c(c(=O)oc2c1)CCCC3 | 106 |
| COC(=O)c1ccc(C2C(C#N)=C(N)Oc3c2c(C)nn3-c2cccc(Cl)c2)cc1 (stereo not given) | 112 |
| Fc1ccc(-c2nc3ccc(C(F)(F)F)cc3nc2-c2ccc(F)cc2)cc1 | 102 |
| CCc1ccc(S(=O)(=O)c2cnc(N3CCC4(CC3)OCCO4)nc2N)cc1 | 105 |
| Cc1nn(-c2ccc3nnc(C)n3n2)c2c1C(c1ccc(OCCc3ccccc3)cc1)CC(=O)N2 (stereo not given) | 103 |
| COc1ccc(NC(=O)c2nnc(C3CCN(C(=O)Nc4ccccc4OC)CC3)s2)cc1 | 102 |
| O=C(COc1ccccc1)N(NC(=O)C(c1ccccc1)(c1ccccc1)c1ccc(O)cc1)c1ccccc1 | 104 |
| COc1ccc(/C=C2\C=C(c3ccccc3)N(c3cccc(C(=O)O)c3)C2=O)cc1Br | 105 |
| O=C(Cn1cnc2c(oc3ccccc32)c1=O)Nc1ccc(Br)cc1F | 104 |
| O=c1[nH]c(SCc2cccc(Br)c2)nc2c1CN(Cc1ccccc1)CC2 | 95 |
| COc1ccccc1C(=O)Nc1cnc2oc(-c3ccccc3)nn2c1=O | 103 |
| O=C(c1ccc2ccnc(N3CCN(c4ccc(F)cc4)CC3)c2c1)N1CCOCC1 | 109 |
| CCS(=O)(=O)CCSc1nc(-c2cccs2)cc(C(F)(F)F)c1C#N | 118 |
| O=C(CCCn1c(SCc2cc(=O)n3cc(Cl)ccc3n2)nc2ccccc2c1=O)NCc1cccc(Cl)c1 | 107 |
| CCn1c(=O)sc2cc(N(S(C)(=O)=O)S(C)(=O)=O)ccc21 | 97 |
| CN1CCN(C(=O)c2ccc(NCc3ccc(F)cc3)c(S(=O)(=O)Nc3cc(F)ccc3F)c2)CC1 | 110 |
| Cc1c(C(=O)N2CCN(c3ccc(F)cc3)CC2)sc2ncn(CC(=O)Nc3cccc(C(F)(F)F)c3)c(=O)c12 | 102 |
| Cn1c(=NC(=Nc2ccccc2)c2ccccc2)sn(-c2ccccc2)c1=S | 106 |
| O=C(C1CC1)N1CCc2sc(S(=O)(=O)NCc3cccs3)cc2C1 | 101 |
| COc1cc(NC(=O)CCCNC(=O)Cn2cnc3sc4c(c3c2=O)CCCC4)cc(OC)c1OC | 107 |

Source: PubChem BioAssay
